Screens deposited in PubChem BioAssay by National Center for Advancing Translational Sciences (NCATS).
VDR inh – inhibitors of human vitamin D receptor; P11473; VDR-SRC2-3 peptide fluorescence polarization, 2 h; Potency, µM, inactives show max response, negative = inhibition, actives largely listed as inhibitors; 400,000 compounds, 0.93% hits; AID 504847; active = well fitted inhibition curve with a large enough effect; inconclusive = small, poorly fitted or top-dose-only effect, or another doubt; inactive = no such curve, though single readings can be large or run the other way; note: series mostly up to about 120 µM
Target sequence (P11473 whole entry, looked up): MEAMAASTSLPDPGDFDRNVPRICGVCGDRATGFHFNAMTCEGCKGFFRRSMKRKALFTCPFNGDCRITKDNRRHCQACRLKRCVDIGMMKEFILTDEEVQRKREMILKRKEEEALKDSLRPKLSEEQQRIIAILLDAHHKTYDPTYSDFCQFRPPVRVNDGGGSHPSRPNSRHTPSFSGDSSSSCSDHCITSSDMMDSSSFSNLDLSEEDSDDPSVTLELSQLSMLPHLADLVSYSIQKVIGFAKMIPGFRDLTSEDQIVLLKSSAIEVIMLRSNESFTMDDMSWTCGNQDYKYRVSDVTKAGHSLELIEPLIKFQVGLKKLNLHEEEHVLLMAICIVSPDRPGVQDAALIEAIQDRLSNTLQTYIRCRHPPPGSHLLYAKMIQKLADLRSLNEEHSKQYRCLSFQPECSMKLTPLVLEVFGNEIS
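Measured by FP: displacement of SRC2-3 coactivator peptide from VDR by library compounds, following a two-hour ambient incubation.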
* = called active by the depositor; & = joins results of further samples. % is set by controls: 0 for no effect and ±100 for the full control effect; potency is the fitted concentration of half-maximal effect.

Sample of the layout, five compounds:
Results for Cn1c(-c2cccc(OCc3ccccc3)c2)nc2c1c(=O)[nH]c(=O)n2Cc1ccccc1 ?
VDR inh: 3%

What do the screens show for `O=C(O)CC(SCC(=O)Nc1ccccc1)C(=O)O` (centres undefined)?
VDR inh: 7%

Results for COc1ccc(S(=O)(=O)N2CCCCC2)cc1NC(=O)C1CC1C (centres undefined) ?
VDR inh: -8%

Results for CCn1c(NC(=O)C(C)C)c(-c2cccs2)c(=O)c2ccccc21 ?
VDR inh: 14%

What do the screens show for `CC(=O)c1c(O)c2cccc3c2n(c1=O)CCC3`?
VDR inh: -5%

The list itself, from the start:
Results for Cn1c(-c2cccc(OCc3ccccc3)c2)nc2c1c(=O)[nH]c(=O)n2Cc1ccccc1 ?
VDR inh: 3%

What do the screens show for `O=C(O)CC(SCC(=O)Nc1ccccc1)C(=O)O` (centres undefined)?
VDR inh: 7%

Results for COc1ccc(S(=O)(=O)N2CCCCC2)cc1NC(=O)C1CC1C (centres undefined) ?
VDR inh: -8%

Results for CCn1c(NC(=O)C(C)C)c(-c2cccs2)c(=O)c2ccccc21 ?
VDR inh: 14%

What do the screens show for `CC(=O)c1c(O)c2cccc3c2n(c1=O)CCC3`?
VDR inh: -5%

Results for O=C(COC(=O)/C=C/c1cccc([N+](=O)[O-])c1)NCC1CCCO1 (centres undefined) ?
VDR inh: 5%

How did C/C=C(/C)C(=O)Nc1cccc(C2=NOC3(C2)C[C@@H](C(N)=O)N(C(=O)C2(C)CC2)C3)c1 (some centres undefined) do in these assays?
VDR inh: -7%

How did CCOc1ccc(NC(=O)c2oc3ccccc3c2NC(=O)C2CCCCC2)cc1 do in these assays?
VDR inh: -7%

What do the screens show for `O=C(O)c1ccccc1-c1ccccc1C(=O)Nc1ccc(OC(F)(F)F)cc1`?
VDR inh: 5%

How did COc1ccc(N2CCN(C(=O)CCNS(=O)(=O)c3cc(Br)cnc3N)CC2)cc1 do in these assays?
VDR inh: -18%

Results for CCCNS(=O)(=O)c1cc(-c2nnc3c4ccccc4c(C)nn23)ccc1OC ?
VDR inh: 10%

How did Cc1c(C(=O)NCc2cccnc2)oc2ccc(S(=O)(=O)N3CC(C)CC(C)C3)cc12 (centres undefined) do in these assays?
VDR inh: inconclusive

How did C=CCn1c(Oc2cccc(C)c2)nc2c1c(=O)n(C)c(=O)n2C do in these assays?
VDR inh: 6%

What do the screens show for `C#CCn1c(CCNC(=O)c2ccco2)nc2ccccc21`?
VDR inh: 9%

How did Cc1cccc(N2CCN(C(c3ccc(N(C)C)cc3)c3nnnn3C(C)(C)C)CC2)c1C (centres undefined) do in these assays?
VDR inh: -2%

Results for O=C(C1=NN[C@@H]2C(=O)N(c3ccccc3C(F)(F)F)C(=O)[C@H]12)c1cnccn1 ?
VDR inh: 1%

How did CCOc1ccc2nc(SCC(=O)NC(=O)NCc3ccco3)sc2c1 do in these assays?
VDR inh: -4%

Results for CCOC(=O)c1sc2nc(SCC(=O)NCc3ccco3)n(Cc3ccccc3)c(=O)c2c1C ?
VDR inh: 4%

What do the screens show for `CN(C)N1C(=O)CC(NNC(=O)c2ccncc2)C1=O` (centres undefined)?
VDR inh: -17%

What do the screens show for `O=C(O)c1cc(=O)c2cc(Cl)ccc2[nH]1`?
VDR inh: 11%

How did O=C(CC1SC(=O)N(c2ccccc2)C1=O)Nc1ccccc1 (centres undefined) do in these assays?
VDR inh: 22µM*

Results for COc1cc(C2C(C#N)=C(N)N(c3sc4c(c3C#N)CCCC4)C3=C2C(=O)CC(C)(C)C3)cc(OC)c1OC (centres undefined) ?
VDR inh: 3%

How did CC1(C)CC(NC(=O)C2CCN(S(=O)(=O)c3ccccc3C(F)(F)F)CC2)CC(C)(C)N1 do in these assays?
VDR inh: -21%

What do the screens show for `COCCCNC(=O)Cn1ccc(N)nc1=O`?
VDR inh: 21%

What do the screens show for `CC(=O)c1ccc(N2CCN(S(=O)(=O)c3c(C)[nH]c(C)c3C(=O)N3CCCC3)CC2)cc1`?
VDR inh: -7%

What do the screens show for `O=C(CSc1nnc(-c2ccncc2)o1)Nc1nncs1`?
VDR inh: 6%

How did CCn1nc(C)c(CN2CCCC(CNS(=O)(=O)c3ccc(OC)cc3)C2)c1C (centres undefined) do in these assays?
VDR inh: 12%

Results for O=C(Cn1c(=O)n(-c2ccccc2Cl)c(=O)c2sc3ccccc3c21)N1CCCC1 ?
VDR inh: -11%

Results for O=C(O)c1ccc(-c2noc(-c3ccccc3Cl)n2)cc1 ?
VDR inh: -3%

How did O/N=C1\CC2(Cc3nonc31)OCCO2 do in these assays?
VDR inh: 11%

How did CCOC(=O)c1cc(-c2ccc(C)cc2)n(CC(=O)Nc2cc(C)ccc2C)c1C do in these assays?
VDR inh: -7%

How did O=C(Nc1ccccc1)/C(=C/c1ccccc1)NC(=O)c1ccco1 do in these assays?
VDR inh: -4%

Results for COC(=O)c1[nH]c2ccc(Br)cc2c1NC(=O)CN1CCN(C2CCCCC2)CC1 ?
VDR inh: -2%

How did O=[N+]([O-])c1cc(CN2CCN(c3cccc(C(F)(F)F)c3)CC2)c2cccnc2c1O do in these assays?
VDR inh: -10%

How did COc1ccc(N2CCN(C(=O)C3CCN(Cc4nc(-c5ccc(Cl)cc5)oc4C)CC3)CC2)cc1 do in these assays?
VDR inh: -13%

What do the screens show for `Cc1ccn2c(=O)cc(COc3ccc(NC(=O)COc4ccc(C)c(C)c4)cc3)nc2c1`?
VDR inh: 7%

What do the screens show for `O=C(CSc1oc(-c2cccs2)nc1S(=O)(=O)c1ccccc1)NC1CCCCC1`?
VDR inh: 2%

What do the screens show for `CCOc1ccccc1NC(=O)NCc1ccccc1F`?
VDR inh: 1%

Results for COc1ccc(N2CCN(C(=O)COC(=O)CCS(=O)(=O)c3ccc(C)cc3)CC2)cc1 ?
VDR inh: 0%

How did COC(=O)N/N=C(C)/C=C/c1ccccc1 do in these assays?
VDR inh: -4%

How did CO/N=C(\C(=O)N[C@@H]1C(=O)N2C(C(=O)O)=C(COC(C)=O)CS[C@H]12)c1csc(N)n1 do in these assays?
VDR inh: 71µM*

How did O=C(NCCCc1ccccc1)c1cccc(NC(=O)C2CC2)c1 do in these assays?
VDR inh: 9%

How did CCSc1nnc(NC(=O)CSc2nc3c(c(=O)n2CCOC)SC(C)C3)s1 (centres undefined) do in these assays?
VDR inh: 0%

What do the screens show for `COc1cccc(C(C(=O)NC2CCCC2)N(C(=O)CNC(=O)c2ccco2)c2cccnc2)c1` (centres undefined)?
VDR inh: 19%

How did Clc1ccc(SCCCCn2ccnc2)cc1 do in these assays?
VDR inh: -5%

What do the screens show for `COc1cccc(C(=O)NCCn2ccc3ccccc32)c1`?
VDR inh: -1%

How did COc1ccccc1N1CCN(C(CNS(=O)(=O)c2ccc(C)cc2)c2cccnc2)CC1 (centres undefined) do in these assays?
VDR inh: -1%

Results for O=S1(=O)c2ccccc2N(Cc2cccc(Cl)c2)c2ccccc21 ?
VDR inh: 17%

How did COc1cc(-c2c(NC(=O)c3ccco3)oc3c(C)cccc3c2=O)cc(OC)c1OC do in these assays?
VDR inh: 1%

How did Oc1ccc(-c2n[nH]c(=S)n2Cc2ccccc2)cc1 do in these assays?
VDR inh: -11%

Results for Fc1ccc(C2=CC(c3ccc(F)cc3)n3c(nc4ccccc43)N2)cc1 (centres undefined) ?
VDR inh: -3%

How did O=C(Nc1nc2ccccc2s1)Nc1ccc(F)cc1F do in these assays?
VDR inh: -3%

Results for Cc1cc2nc(C)n(CCCNC(=O)Nc3ccc(C#N)cc3)c2cc1C ?
VDR inh: -13%

What do the screens show for `Cc1cccc(CCNC(=O)c2ccc(CSCc3cccc(Cl)c3)o2)c1`?
VDR inh: -1%

How did O=C(C1CCCCC1)N1CCN(c2ccnc3cc(Cl)ccc23)CC1 do in these assays?
VDR inh: 2%

How did COc1cc(CN2CC(=O)N(c3ccc(C)c(Cl)c3)C2=S)cc(OC)c1OC do in these assays?
VDR inh: 12%

Results for COc1ccc(C(=O)Nc2nnc(SCC(=O)NC3CCCC3)s2)c(OC)c1 ?
VDR inh: -23%

What do the screens show for `Cc1cc(C)c(S(=O)(=O)N2CCCOC2CNC(=O)C(=O)NCc2cccnc2)c(C)c1` (centres undefined)?
VDR inh: -15%

What do the screens show for `CCOC(=O)[C@@H]1[C@H]2COc3ccc(Br)cc3[C@H]2N2C(=O)N(c3ccc(F)cc3)C(=O)[C@]12C`?
VDR inh: -8%

Results for CCOc1ccc(C(C(=O)NC2CCCCC2)N(C(=O)c2csnn2)C2CC2)cc1 (centres undefined) ?
VDR inh: 4%

Ordered by molecular weight (highest first): some entries from above.
What do the screens show for `CCOC(=O)[C@@H]1[C@H]2COc3ccc(Br)cc3[C@H]2N2C(=O)N(c3ccc(F)cc3)C(=O)[C@]12C`?
VDR inh: -8%

Results for CCOc1ccc(C(C(=O)NC2CCCCC2)N(C(=O)c2csnn2)C2CC2)cc1 (centres undefined) ?
VDR inh: 4%

Results for COc1ccc(C(=O)Nc2nnc(SCC(=O)NC3CCCC3)s2)c(OC)c1 ?
VDR inh: -23%

How did COc1cc(CN2CC(=O)N(c3ccc(C)c(Cl)c3)C2=S)cc(OC)c1OC do in these assays?
VDR inh: 12%

Results for Cc1cc2nc(C)n(CCCNC(=O)Nc3ccc(C#N)cc3)c2cc1C ?
VDR inh: -13%

Results for Fc1ccc(C2=CC(c3ccc(F)cc3)n3c(nc4ccccc43)N2)cc1 (centres undefined) ?
VDR inh: -3%

How did O=C(C1CCCCC1)N1CCN(c2ccnc3cc(Cl)ccc23)CC1 do in these assays?
VDR inh: 2%

New compounds follow.
What do the screens show for `O=C(Nc1ccccc1)OC1CCC2CC1CCC2OC(=O)Nc1ccccc1` (centres undefined)?
VDR inh: 8%

What do the screens show for `Cc1cccc(N(C)C(=O)CCNS(=O)(=O)c2ccc3c(c2)CCN3C(=O)C2CC2)c1`?
VDR inh: 16%

Results for CNS(=O)(=O)c1cccc(C(=O)OCC(=O)Nc2nc(OC)cc(OC)n2)c1 ?
VDR inh: -6%

Results for COc1ccc(OC)c(NC(=O)CCc2c(C)nc3c(c(C)nn3C(C)(C)C)c2C)c1 ?
VDR inh: 5%

What do the screens show for `O=C(Nc1ccccc1)Nc1cccc(C(F)(F)F)c1`?
VDR inh: 9%

Results for COc1ccccc1CNC(=O)C(=O)NCC(c1ccco1)S(=O)(=O)c1cccs1 (centres undefined) ?
VDR inh: 10%

Results for CCN(CC)CCCNc1nc2ccccc2c2[nH]c3ccc(OC)cc3c12 ?
VDR inh: 8%

What do the screens show for `Cc1nc(N[C@@H](Cc2c[nH]c3ccccc23)C(=O)O)c2oc3ccccc3c2n1`?
VDR inh: -12%

Results for CC(=O)N1CCC2(CCCN(C(=O)Nc3cccc(F)c3)C2)CC1 ?
VDR inh: 2%

How did C/C(=N\NC(=O)c1ccc(Cl)c(Cl)c1)c1ccc(Br)s1 do in these assays?
VDR inh: -20%

What do the screens show for `CCCCCSc1nnc2c(n1)OC(c1ccc(C)s1)N(C(C)=O)c1ccccc1-2` (centres undefined)?
VDR inh: -29%

How did CC1CC(C)CN(C(=O)C(NS(=O)(=O)c2ccc(Br)s2)c2ccccc2)C1 (centres undefined) do in these assays?
VDR inh: -1%

How did CSc1ncnc2c1cnn2-c1ccc(C)cc1C do in these assays?
VDR inh: -18%

Results for Cn1c(=O)c2c(nc(CN3CCc4ccccc4C3)n2Cc2ccccc2)n(C)c1=O ?
VDR inh: 11%

Results for C=CCNc1oc(-c2cccc(F)c2)nc1C#N ?
VDR inh: -4%

What do the screens show for `CCOc1ccccc1NC(=S)NC(=O)c1ccco1`?
VDR inh: -4%

What do the screens show for `Cc1c(Cl)cccc1NC(=O)N1CCOc2ccccc21`?
VDR inh: 22%

Results for NS(=O)(=O)c1ccc(CCN=C(NS(=O)(=O)c2cccs2)c2ccccc2)cc1 ?
VDR inh: 0%

Results for CSCCC(=O)N1CCC(n2nccc2NC(=O)CCCc2ccccc2)CC1 ?
VDR inh: 1%

What do the screens show for `COc1c(C(=O)Nc2ccc(CN3CCOCC3)cc2)cc2ccccc2c1Br`?
VDR inh: -14%

What do the screens show for `CN(/N=C/Cc1nnnn1-c1ccc(Cl)cc1)c1ccccc1`?
VDR inh: -18%

What do the screens show for `O=c1cc(CSCc2ccc(Cl)cc2)[nH]c(=O)[nH]1`?
VDR inh: -13%

What do the screens show for `COc1cccc(OC)c1C(=O)Nc1cc(C)nn1-c1nc2ccccc2[nH]1`?
VDR inh: 4%

How did COc1cccc(N2CC(O)=C(c3nc4ccccc4s3)C2=N)c1 do in these assays?
VDR inh: -11%

How did CCOC(=O)[C@@H]1CCNC[C@@H]1c1ccccc1 do in these assays?
VDR inh: -2%

How did C#CCOc1ccc(Br)cc1/C=N/O do in these assays?
VDR inh: -3%

How did Cc1ccc(S(=O)(=O)N2CCC[C@H]2C(=O)OC(C)C(=O)Nc2ncc(Cl)cc2Cl)cc1 (some centres undefined) do in these assays?
VDR inh: -3%

What do the screens show for `COc1ccccc1NC(=O)CSc1ncn[nH]1`?
VDR inh: 14%

What do the screens show for `Cc1ccc(OCCCCn2ccnc2)c([N+](=O)[O-])c1`?
VDR inh: -15%

Results for Cc1cccc(C2CC(c3ccc(Br)cc3)Nc3nc(N)nn32)c1 (centres undefined) ?
VDR inh: -16%

What do the screens show for `CCC(C(=O)O)n1ccc2cc(S(=O)(=O)N3CCCCC3)ccc21` (centres undefined)?
VDR inh: -9%

Results for O=C(Nc1ccc2cn[nH]c2c1)c1ccc(Cl)c(S(=O)(=O)N2CCOCC2)c1 ?
VDR inh: 10%

How did Cc1cccc(C2=NN(c3ccc(Br)cc3)[C@@H](C(=O)N3CCOC3=O)[C@@H]2c2ccc([N+](=O)[O-])cc2)c1 do in these assays?
VDR inh: -14%&-3%

How did CC(C)(C)C1CCc2c(sc(NC(=O)c3ccncc3)c2C(=O)Nc2ccccc2Cl)C1 (centres undefined) do in these assays?
VDR inh: 7%

Results for COc1ccc(OCC(=O)NC(=O)c2ccccc2OC)c([N+](=O)[O-])c1 ?
VDR inh: 8%

Results for O=C1CC(/C=C/c2ccncc2)=Nc2ccccc2N1 ?
VDR inh: -18%

This is a subset. The share of hits here may be higher or lower than overall.
